Insulin prom inh = TRM-6 insulin promoter activity inhibition | TRM-6 cells (human fetal islet line), insulin promoter-eGFP reporter, imaging; reporter expression induced with tamoxifen | inhibition, % at 2 µM | 130,000 tested, 0.9% active;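 active means inhibition above the mean plus 3 SD, with well images judged a real hit on visual review, cut at about 60% in these data, passing the limit was not always enough; inconclusive means inhibition over the cutoff but images rejected on review; inactive means inhibition not above the cutoff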
PKD1 inh = inhibitors of human PKD1 kinase | inhibition, %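 (about 10 µM by stock and volumes)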 | PKD1 kinase fluorescence polarization assay | 200,000 tested, 0.056% active;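 active means inhibition of 50% or more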;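 further: controls were vehicle for no effect and a reference inhibitor for full effect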
HSV replic up = HSV replication enhancement | HSV replication augmentation in cells, fold increase | maximum fold increase | 220,000 tested, 0.005% active;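 active means peak rise of 1.5-fold or more in the series; inconclusive means self-fluorescent or not available for retest; tested in PC3 cells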;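 further: first round at 10 µM; read as green reporter fluorescence; hits show the peak of a series up to 25 µM; 1 = signal of infected wells without compound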
RGS16-Gao = RGS16-Galphao interaction regulator (human) | O15492+P09471 | bead-based flow cytometry RGS16-Galphao binding, fluorescence; actives lie on both sides | binding response (% of control), % at 10 µM | 220,000 tested, 0.38% active;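 active means below 25% or above 175%, edge rows of some plates excepted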;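 further: Galphao activated by GDP with aluminum fluoride before binding; 100% = wells without compound and 0% = beads without RGS; some results beyond the cut were filed as inactive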
Target sequence (O15492 whole entry, looked up): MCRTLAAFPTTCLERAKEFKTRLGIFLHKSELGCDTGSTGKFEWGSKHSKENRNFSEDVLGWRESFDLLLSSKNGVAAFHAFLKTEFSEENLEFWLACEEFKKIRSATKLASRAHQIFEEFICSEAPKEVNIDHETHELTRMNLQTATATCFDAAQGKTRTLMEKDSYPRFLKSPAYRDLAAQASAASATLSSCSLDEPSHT
Target sequence (P09471 whole entry, looked up): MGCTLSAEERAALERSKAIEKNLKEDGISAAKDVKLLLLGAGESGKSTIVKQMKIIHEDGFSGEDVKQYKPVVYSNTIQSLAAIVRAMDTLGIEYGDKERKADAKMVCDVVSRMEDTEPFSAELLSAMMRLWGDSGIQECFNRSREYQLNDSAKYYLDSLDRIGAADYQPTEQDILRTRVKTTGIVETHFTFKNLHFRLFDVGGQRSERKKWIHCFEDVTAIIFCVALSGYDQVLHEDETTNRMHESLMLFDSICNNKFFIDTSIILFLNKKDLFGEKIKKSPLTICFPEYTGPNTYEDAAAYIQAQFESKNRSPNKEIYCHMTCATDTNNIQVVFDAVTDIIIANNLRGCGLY
GALR2 agonist = activates the human galanin receptor 2 | GALR2-expressing cells, agonist activation read-out | activation, %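 (tested at 5 µM)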 | 140,000 tested, 0.48% active;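 active means above mean plus 3 SD of all compounds, about 5% in these data, not always enough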;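 further: 0% = vehicle buffer wells and 100% = reference agonist at full effect; tested in CHO reporter cells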
Target sequence (O43603 whole entry, looked up): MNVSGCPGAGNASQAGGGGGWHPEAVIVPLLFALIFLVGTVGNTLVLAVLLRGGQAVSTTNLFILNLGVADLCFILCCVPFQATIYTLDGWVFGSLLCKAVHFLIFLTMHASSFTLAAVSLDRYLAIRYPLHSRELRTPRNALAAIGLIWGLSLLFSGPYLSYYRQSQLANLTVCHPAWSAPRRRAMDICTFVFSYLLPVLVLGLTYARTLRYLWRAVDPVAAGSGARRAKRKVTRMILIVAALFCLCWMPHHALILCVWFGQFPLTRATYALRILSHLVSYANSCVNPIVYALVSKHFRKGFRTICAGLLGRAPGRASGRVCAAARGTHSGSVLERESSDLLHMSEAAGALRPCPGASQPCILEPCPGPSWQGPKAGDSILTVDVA
Insulin prom inh cell count = recorded beside Insulin prom inh, whose call it bears; normalized cell count, %; measured here: cell count, toxicity; reference of the scale not given here;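 cells exposed to compound for 48 h; stained nuclei by imaging scaled within each plate; lower means fewer cells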
HSV replic up primary fold = second read-out of HSV replic up, no call of its own (marks repeat the call); fold increase; compound at 10 µM; measured here: primary screen fold increase 10 uM; tested in PC3 cells;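 GFP signal in the first replicate; 1 = infected wells without compound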
* hit, by the source's call; i = inactive; ? = inconclusive; / = not tested or not shown. Rows were taken by chance; overall some 1.2% were active at least once.

SMILES	Insulin prom inh	Insulin prom inh cell count	PKD1 inh	HSV replic up	HSV replic up primary fold	RGS16-Gao	GALR2 agonist
COc1ccc([N+](=O)[O-])cc1NC(=O)C(C)Sc1nc(C)c(C)c(C)n1 (stereo not given)	15	48	2	i	0.97	101	0.3
Cc1nnc(NC(=O)CSc2nnc(Cc3ccccc3)n2Cc2ccccc2)s1	10	102	-8	i	0.88	/	-2.3
COC(=O)C1=C(C)N=C2SC(C#N)=C(N)N2C1c1cc(OC)c(OC)c(OC)c1 (stereo not given)	/	/	-1	i	1.1	102	-2.1
COc1cc(NC(=S)NCCc2ccccc2)c(OC)cc1NC(=O)C(C)C	/	/	/	i	0.99	102	/
O=C(OCc1cn(-c2ccc(Cl)c(Cl)c2)nn1)c1ccccc1Cl	/	/	-7	i	0.89	94	-1.4
CCOc1ccc(C(=O)CSc2nnc(C3CC3)n2C)cc1	-31	98	-6	/	/	93	-1.6
CCNC(=S)N(Cc1cc2cccc(C)c2[nH]c1=O)C1CCCC1	24	133	-9	i	0.91	102	0.1
O=C1CSC(c2cccnc2)N1Cc1ccc(Cl)c(Cl)c1 (stereo not given)	/	/	/	i	0.96	102	/
CCCn1nnc(NC(=O)c2cccc(Cl)c2)n1	32	96	1	i	0.99	93	-3.8
CS(=O)(=O)N(CC(=O)NCCc1ccccc1)c1cccc([N+](=O)[O-])c1	-55	83	0	i	1	89	/
O=C1c2ccccc2CC1Sc1nnc(-c2ccncc2)o1 (stereo not given)	40	43	-16	i	0.76	97	-0.6
CN(Cc1nc2ccccc2c(=O)[nH]1)C(=O)c1ccc(S(=O)(=O)N(C)C)cc1	30	94	-12	i	1.1	99	-2.5
COc1cc2c(=O)n(CCC(=O)NCC3CCCO3)c(=O)n(CC(=O)c3ccc(Cl)cc3)c2cc1OC (stereo not given)	/	/	-3	i	0.97	109	/
COc1ccc(-n2c(CCC(=O)O)ccc2-c2ccccc2)cc1	-71	39	-7	i	0.94	108	/
COc1ccc(NC(=O)/C(C#N)=C\c2ccc(Br)o2)cc1	/	/	/	i	1.3	92	/
CC1=NN(c2ccccc2)C(=O)C1C=Nc1ccc(N(C)C)cc1 (stereo not given)	/	/	/	i	1	100	/
Cc1cc(C(=O)N2CCN(c3cccc(Cl)c3)CC2)c(C)o1	/	/	-13	i	0.71	98	-1.1
Cc1cc(C)nc(/N=C(\N)Nc2ccc(-c3ccccc3)cc2)n1	/	/	-9	i	0.67	109	/
C=CCNC(=O)C1CC2Cn3c(nc4cc(C)c(C)cc43)C2N1C (stereo not given)	/	/	/	i	0.89	95	/
COCCOC(=O)C1=C(C)NC(=O)CC1c1cc2c(cc1Br)OCO2 (stereo not given)	-16	75	6	i	1.1	93	-0.4
Cc1cc(NCc2ccccn2)ccc1Br	10	79	-4	i	1.1	108	-3.3
Cc1ccc(C(=O)NS(=O)(=O)c2ccc(N=NN(C)C)cc2)cc1	/	/	-9	i	1.2	101	/
Cc1ccc(-c2cnc(NC(=O)c3cccc(Br)c3)s2)c(C)c1	/	/	-10	i	0.71	102	-0.7
CC(C(=O)OCC(=O)c1ccccc1)N1C(=O)c2ccccc2C1=O (stereo not given)	/	/	2	i	0.93	97	/
Clc1ccc(-c2nc3nc4ccccc4nc3n2Cc2ccco2)cc1	45	179	-2	i	0.94	93	-0.2
Cc1[nH]n(-c2ccccc2)c(=O)c1C1(C(F)(F)F)C(=O)N(c2ccc(F)cc2)C2=C1C(=O)CC(C)(C)C2 (stereo not given)	-56	103	1	i	0.96	101	-3.5
O=C(CCCOc1ccccc1)N1CCCCC1	-3	190	-3	i	0.9	103	-3.1
CC1(C)Oc2ccc3ccc(=O)oc3c2/C(=C/Nc2ccccc2)C1=O	-32	120	-2	i	1	106	-0.6
Cc1ccccc1NN1C(=O)C=CC1=O	-11	100	-4	i	0.97	98	-0.8
CCNC(=S)Nc1ccc(Cc2ccncc2)cc1	/	/	-2	i	0.93	99	/
O=C1CCC(=O)N1c1ccc(NCCc2ccccc2F)c([N+](=O)[O-])c1	-79	39	-1	i	0.9	94	/
CN(C)S(=O)(=O)c1ccc(C(=O)Nc2nc(-c3cccs3)cs2)cc1	/	/	3	i	0.78	104	-2.9
CC(C)(C)NC(=S)NC(C)(C)C	/	/	/	i	0.78	100	/
CC1=Nn2c(nnc2-c2cc(C)[nH]n2)SC1	/	/	-2	i	0.93	104	0.2
Nc1c(C(=O)O)ccc2c1C(=O)c1ccccc1C2=O	/	/	2	?	/	98	/
CC(=O)Nc1nc(C)c(CCCOc2ccc([N+](=O)[O-])cc2)c(=O)[nH]1	/	/	/	i	1.1	128	/
Cc1[nH]nc2c1C(c1cccs1)C(C#N)=C(N)O2 (stereo not given)	-38	89	1	i	1.1	99	/
O=C(CCC(=O)OCC(=O)c1ccccc1)Nc1cccc2cccnc12	/	/	-1	i	0.86	100	-4.1
CCN(CC)Cc1c(O)ccc2c(=O)c(Oc3ccccc3OC)c(C)oc12	/	/	/	i	1.3	100	/
Cc1ccc(OC(=O)c2ccc3nc(C)sc3c2)cc1	15	91	-2	i	0.95	102	/
CC(C)(C)C(=O)Cn1c(NCCCO)nc2ccccc21	-36	94	2	i	1	97	-2.4
O=C(N/N=C/c1cc([N+](=O)[O-])ccc1N1CCCCCC1)c1ccccn1	47	139	0	i	0.99	104	/
COC(=O)CCn1nnc(-c2ccc(C)cc2)n1	7	128	-6	i	0.74	105	-3.1
OCCN=c1cc(-c2ccccc2)oc2ccc(Cl)cc12	26	105	-4	i	0.57	103	0.0
O=C(NC(NC(=S)Nc1cc(Cl)ccc1Cl)C(Cl)(Cl)Cl)c1ccco1 (stereo not given)	-10	127	-4	i	1.1	104	-2.2
O=[N+]([O-])c1cncc([N+](=O)[O-])c1Nc1ccccc1Cl	/	/	2	i	1.1	102	/
O=C1NC(=Nc2ccccc2)S/C1=C\c1cccs1	/	/	/	i	0.99	97	/
CCOc1cc(/C=N/NC(=O)c2cccc([N+](=O)[O-])c2)ccc1OS(=O)(=O)c1ccccc1	/	/	-2	i	0.62	96	-2.2
Cc1nn(CC(=O)Nc2ccccn2)c(C)c1Br	-17	181	-2	/	/	81	-1.2
Cc1nc2c3cnn(-c4ccccc4)c3ncn2n1	8	132	-7	i	0.92	106	0.1
CC1CCN(S(=O)(=O)c2ccc3c(c2)c(=O)c(C(=O)N2CCCCC2)cn3C)CC1	39	110	-2	i	0.74	99	1.9
Cc1ccc(S(=O)(=O)N2CCC(NC(=O)OC(C)C)CC2)cc1	/	/	-3	i	0.97	95	/
Cc1ccc(NC(=S)N2CCn3cccc3C2c2cccnc2)cc1 (stereo not given)	/	/	0	/	/	98	-0.1
CS(=O)(=O)Nc1ccc(Cc2ccc(NS(C)(=O)=O)cc2)cc1	27	126	-13	i	1.1	102	-2.7
CC(C)C(NC(=O)C(Cc1ccccc1)NC(=O)OCc1ccccc1)C(=O)O (stereo not given)	/	/	4	i	0.58	111	/
Cc1cc(C)cc(OCC(=O)NCCc2nc3ccccc3[nH]2)c1	/	/	6	i	1	104	/
CCc1cc2cc(C)cc(C)c2nc1SCC(=O)NNC(=O)c1ccco1	/	/	1	i	0.88	103	0.2
Cc1nc2ncccn2c1-c1csc(Nc2ccc(N(C)C)cc2)n1	-42	5	9	i	0.75	100	/
O=C(CCn1c(=O)oc2ccccc21)N1CCOCC1	/	/	3	i	0.94	108	0.0
O=C(COc1ncnc2ccccc12)N1CCN(S(=O)(=O)c2ccc(Cl)cc2)CC1	-4	100	-9	i	0.97	102	0.5

New compounds follow:
SMILES	Insulin prom inh	Insulin prom inh cell count	PKD1 inh	HSV replic up	HSV replic up primary fold	RGS16-Gao	GALR2 agonist
CCCC(C)NC(=O)COC(=O)c1cc(Br)c(Br)s1 (stereo not given)	/	/	-3	i	0.64	98	/
CC(=O)c1sc(N/N=C\c2cccc(Br)c2)nc1C	-55	78	6	?	/	95	1.5
CCCC(=O)Nc1ccc(NC(=O)c2ccccc2OC)cn1	/	/	21	i	1	161	-1.4
O=C(Nc1ccc2c(c1)OCCO2)c1cnccn1	57	134	-11	i	0.82	98	-2.6
CC(C)(C)NC(=O)NC(=O)CN1CCN(c2cccc(Cl)c2)CC1	/	/	/	i	0.89	96	/
CCCCCC1C/C(=N\O)C=C(C)C1C(=O)OC (stereo not given)	/	/	/	i	1	97	/
C/C=C(\C)C(=O)NCCN1C2=NC[C@H](C)N2C[C@@H]1Cc1ccc(OC)cc1	/	/	2	i	1	117	/
CCOC(=O)C1(Cc2ccc(Cl)cc2)CCN(Cc2cn(CC)nc2C)CC1	/	/	/	i	0.85	103	/
O=C(CN1C(=O)C2C3C=CC(C3)C2C1=O)NCCN1CCCc2ccccc21 (stereo not given)	/	/	6	/	/	105	-2.7
CC(C)SC1=NC(C)(C)C=C(/C=C/c2ccc(Cl)cc2Cl)N1	-61	49	-3	i	0.82	99	-0.6
CSc1cc(C)n(-c2ccccc2C)c(=S)c1C(C)=O	15	69	-3	i	0.82	101	-3.0
O=C(NCc1ccccn1)c1cc(-c2ccc(-c3ccccc3)cc2)nc2ccccc12	18	140	-6	i	0.81	97	-0.7
CC1CCCC(NC(=O)CCn2c(=S)oc3ccccc32)C1C (stereo not given)	/	/	/	i	1	106	/
O=C(Nc1ccccc1)c1ccc(-c2ccccc2Cl)o1	52	109	-7	i	0.95	100	-1.0
Cc1cc[n+](-c2nc3ccccc3nc2C(=C=[N-])C#N)cc1	-46	87	-5	i	1	96	-1.4
O=S(=O)(c1cccc(-c2n[nH]c(=S)o2)c1)N1CCOCC1	/	/	/	i	1.2	97	/
CN(C)CCNC(=O)CNC(=S)N(Cc1ccccc1)Cc1cccnc1	57	90	-4	i	1.1	108	-1.5
Cc1nc2ccc(NC(=O)c3ccc(F)c(S(=O)(=O)N4CCOCC4)c3)cc2s1	-14	149	-8	i	0.89	104	-0.4
CCN(CC)CCCn1c(C)cc2c(c1=O)C(c1ccc(OC)c(OC)c1OC)C(C#N)=C(N)O2 (stereo not given)	/	/	12	i	1.1	99	-1.8
Cc1cccc(N2CCN(C(=O)Cn3cccc3C(=O)c3ccccc3)CC2)c1C	-21	91	2	i	0.86	103	-2.2
COc1cccc(NC(=O)CSc2nnc(-c3ccc(C)cc3)o2)c1	/	/	-11	i	0.96	100	-1.6
CCOC(=O)CC(=O)CSc1ccc2nnc(-c3ccc(F)cc3)n2n1	/	/	-26	i	1	102	-0.5
Cc1ccc(S(=O)(=O)CC(=O)c2ccc3c(c2)OCCO3)cc1	/	/	/	i	1.1	98	/
Cn1c(=O)c2c(nc(N3CCN(Cc4ccccc4)CC3)n2CCCc2ccccc2)n(C)c1=O	-62	71	3	i	0.93	101	1.6

Rewritten bar-delimited: 5 of the compounds above
canonical_smiles | Insulin prom inh | Insulin prom inh cell count | PKD1 inh | HSV replic up | HSV replic up primary fold | RGS16-Gao | GALR2 agonist
CC1CCCC(NC(=O)CCn2c(=S)oc3ccccc32)C1C (stereo not given) | / | / | / | i | 1 | 106 | /
O=C(Nc1ccccc1)c1ccc(-c2ccccc2Cl)o1 | 52 | 109 | -7 | i | 0.95 | 100 | -1.0
Cc1cc[n+](-c2nc3ccccc3nc2C(=C=[N-])C#N)cc1 | -46 | 87 | -5 | i | 1 | 96 | -1.4
O=S(=O)(c1cccc(-c2n[nH]c(=S)o2)c1)N1CCOCC1 | / | / | / | i | 1.2 | 97 | /
CN(C)CCNC(=O)CNC(=S)N(Cc1ccccc1)Cc1cccnc1 | 57 | 90 | -4 | i | 1.1 | 108 | -1.5

Next compounds.
SMILES	Insulin prom inh	Insulin prom inh cell count	PKD1 inh	HSV replic up	HSV replic up primary fold	RGS16-Gao	GALR2 agonist
CCOC(=O)C1(Cc2ccc(OC)cc2)CCN(C(=O)CN2CCOC2=O)CC1	/	/	-6	i	1	103	/
O=C1Nc2ccccc2/C1=N\N=C\c1ccc(O)c(O)c1	/	/	/	i	0.86	86	/
CCC1CCCCN1C(=O)CSc1nnc(-c2cccc(Cl)c2)o1 (stereo not given)	10	51	6	i	0.94	95	-1.6
O=C(CC1SC(=O)N(Cc2ccccc2Cl)C1=O)Nc1nccs1 (stereo not given)	/	/	/	i	0.93	99	/
Cc1ccc(CN2C(=O)CCC2C(=O)NCC2CCCO2)cc1 (stereo not given)	-14	190	-9	i	0.88	102	-2.1
COc1ccccc1N1CCN(C(=O)CCn2c(=O)[nH]c3ccsc3c2=O)CC1	-29	127	4	i	1.1	121	-2.0
COc1ccccc1N1CCN(C(=O)/C=C/c2c(Cl)nc3ccccn23)CC1	/	/	0	i	0.98	101	/
O=C(c1cccn2c(=O)c3cc(Cl)ccc3nc12)N1CCN(Cc2ccc3c(c2)OCO3)CC1	9	109	-9	/	/	102	0.4

High-throughput results as filed in PubChem.
